CDC25B CDK2 inh = human CDC25B-CDK2/CyclinA binding inhibition. P30305+P24941. HTRF CDC25B-CDK2/CyclinA binding, anti-His/anti-Flag; stronger effect = higher value. z-score (test concentration not listed). 94,000 compounds, 0.72% hits;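 note: score is relative to mean and SD of negative controls; strong numbers were not always called active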
TAR Tat displ = HIV-1 TAR-Tat binding disruption; HIV-1 TAR RNA, Tat peptide displacement FRET; stronger effect = higher value; AID 1259389; 100,000 compounds, 0.6% hits; z-score (concentration not given with the values);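 note: score is relative to mean and SD of negative controls; some compounds called inactive have numbers as strong as hits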
Numbers without * were called inactive; · = not tested or not shown.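 Rule for the calls: active = z-score from 3 up in half or more of its runs; inactive = the rest.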

SMILES	CDC25B CDK2 inh	TAR Tat displ
O=C(c1ccncc1)N(c1ccc2oc3c(c2c1)CCCC3)S(=O)(=O)c1ccc(F)cc1	-0.87	·
CCc1cc(C(=O)Cc2csc(C)n2)c(O)cc1O	1.75	1.9
Cc1nn(-c2ccc(N3CCCC3)nn2)c(C)c1CCC(=O)N1CCN(c2ccc(F)cc2)CC1	·	0.64
CSc1nc2n(n1)C(CC(C)C)C(C(=O)Nc1ccc(Cl)cc1)=C(C)N2 (configuration not stated)	-2.9	0.17
O=C(Cc1ccccc1)OCc1cc(=O)n2nc(-c3cccs3)sc2n1	·	3.02
O=C(c1noc2c1COc1ccccc1-2)N1CCOCC1	-0.41	2.07
CN(C(=O)C1CC(c2ccccc2F)=NO1)c1ccccc1 (configuration not stated)	-1.04	0.09
Cc1cc(C)cc(NC(=O)NCc2noc3ccc(C)cc23)c1	·	1.38
O=C(NCc1cccs1)c1cnn2c(C(F)(F)F)cc(-c3cccs3)nc12	·	2.66
CCNC(=S)Nc1ccc(C(C)(C)C)cc1	-2.01	·
CC(C)(C)c1nc2scc(-c3ccc(Cl)cc3)n2n1	-2.04	·
Cc1cc(C)c(S(=O)(=O)NCc2nnnn2-c2ccccc2)c(C)c1	·	1.77
Cc1cc2c(cc3c(=O)n(CCCC(=O)NCCN4CCOCC4)nc(C)n32)o1	-2.89	-1.54
Cc1ccc(N2CCN(c3nc4ccc(C)cc4n4nnnc34)CC2)c(C)c1	·	-0.13
O=C(c1cc2cc3ccc(Cl)cc3nc2o1)N1CCN(c2ccccc2F)CC1	·	2.05

Reprinted from the part before: 5 entries, followed by the next part.
SMILES	CDC25B CDK2 inh	TAR Tat displ
CC(C)(C)c1nc2scc(-c3ccc(Cl)cc3)n2n1	-2.04	·
Cc1cc(C)c(S(=O)(=O)NCc2nnnn2-c2ccccc2)c(C)c1	·	1.77
Cc1cc2c(cc3c(=O)n(CCCC(=O)NCCN4CCOCC4)nc(C)n32)o1	-2.89	-1.54
Cc1ccc(N2CCN(c3nc4ccc(C)cc4n4nnnc34)CC2)c(C)c1	·	-0.13
O=C(c1cc2cc3ccc(Cl)cc3nc2o1)N1CCN(c2ccccc2F)CC1	·	2.05
O=C(NC(NC(=S)Nc1cc(Cl)ccc1Cl)C(Cl)(Cl)Cl)c1ccc(F)cc1 (configuration not stated)	-0.55	·
Cc1ccc(CS(=O)(=O)c2ncc(Cl)c(C(=O)Oc3ccc(C)cc3)n2)cc1	-1.28	-0.27
COc1ccc(C2CC(=O)c3cc(-c4nc(-c5ccc(C)cc5)c(C)s4)c(=O)[nH]c3C2)cc1OC (configuration not stated)	-0.49	-5.46
O=C(Nc1ccc(S(=O)(=O)N2CCc3ccccc32)cc1)N1CCCC1	·	0.26
Cc1cccc(CSc2nnc(C)n3c2cc2sccc23)c1	·	4.9
O=C(NCCCN1CCCCC1)C1CCN(c2nn3c(=O)c4c(nc3s2)CCCC4)CC1	·	2.76
Clc1cccc(CSc2nc3ccncc3[nH]2)c1	·	1.08
CC(=O)OCCNc1cc(N2CCCCC2)c2noc3c2c1C(=O)c1ccccc1-3	-0.21	-0.97
COc1cc(C)c2c(c1C=O)Oc1c(c(C)c(O)c3c1C(O)OC3=O)OC2=O (configuration not stated)	·	0.93
COc1cc(OC)c(NC(=O)Cn2cnc(S(=O)(=O)N3CCc4ccccc43)c2)cc1Cl	·	0.98
CC(C)CCNC(=O)CSC1=NS(=O)(=O)c2ccccc2N1	·	0.34
Cc1nnc2c(Nc3ccc(Cl)cc3)nc3ccccc3n12	0.83	1.2
Cc1ccc2nc(-c3ccccc3)[nH]c2c1	-0.73	·
Cc1ccc(Cl)cc1-n1nnc(-c2nc(-c3ccccc3)no2)c1N	·	1.51
CCCCOC(=O)Nc1nc2ccc(C)cc2s1	0.71	-0.19

Compound profiles, from the list above.
Entry for `Cc1nnc2c(Nc3ccc(Cl)cc3)nc3ccccc3n12` = CDC25B CDK2 inh: 0.83; TAR Tat displ: 1.2
Entry for `Cc1cc(C)cc(NC(=O)NCc2noc3ccc(C)cc23)c1` = CDC25B CDK2 inh: ·; TAR Tat displ: 1.38

The list continues:
SMILES	CDC25B CDK2 inh	TAR Tat displ
Cc1nc2nc[nH]n2c(=O)c1NC(=O)CCc1ccccc1	-1.24	·
Cc1ccc(S(=O)(=O)N2CCN(c3nc4ccccc4n4cccc34)CC2)c(C)c1	-1.47	1.39
Cc1noc(/C=C/c2ccco2)c1S(=O)(=O)N1CCCC(C(=O)N2CCC(C)CC2)C1 (configuration not stated)	·	0.95
CCOC(=O)c1nc(Nc2ccccc2F)c2ccccc2n1	·	0.93
COc1ccc(C2C3=C(CC(C)(C)CC3=O)NC3=C2C(=O)CC(C)(C)C3)cc1O	·	0.39
CCc1ccc(C2CC(=O)NC3=C2C(=O)CC(c2ccc(F)cc2)C3)cc1 (configuration not stated)	-1.34	0.86
COc1ccc(C2OCC3(COC(C)=O)C(C)C=C(C)C2C3C)cc1 (configuration not stated)	-0.05	-0.13
Cc1ccc(-c2onc(C)c2C)cc1S(=O)(=O)Nc1ccccc1Cl	·	1.17
CCCN1CCN(c2nc(NCC)c3cnn(C)c3n2)CC1	·	1.73
CCn1c2c(c(=O)[nH]c1=O)C(c1ccc(F)cc1)C1=C(N2)c2ccccc2C1=O (configuration not stated)	-0.37	-5.59
CCN(CC)CCn1c2ccc(C)cc2c2nc3ccccc3nc21	-0.77	0.48
O=C1CSCC(=O)N1c1ccccc1N1CCOCC1	-1.87	·
O=C(Nc1cccc(Cl)c1)c1cc2c(s1)-c1ccccc1OC2	-1.17	1.98
Nc1nc2ncc(=O)[nH]c2c(=O)[nH]1	·	2.73
O=C(Cc1ccccc1)Nc1noc2ccccc12	2.29	1.73

Pulled by structure from the list above:
SMILES	CDC25B CDK2 inh	TAR Tat displ
CC(C)(C)c1nc2scc(-c3ccc(Cl)cc3)n2n1	-2.04	·
CCCCOC(=O)Nc1nc2ccc(C)cc2s1	0.71	-0.19
Cc1cc(C)c(S(=O)(=O)NCc2nnnn2-c2ccccc2)c(C)c1	·	1.77
Cc1ccc(S(=O)(=O)N2CCN(c3nc4ccccc4n4cccc34)CC2)c(C)c1	-1.47	1.39

Other records.
SMILES	CDC25B CDK2 inh	TAR Tat displ
CN1CCOc2ccc(S(=O)(=O)Nc3ccccc3Br)cc21	·	1.33
CCC(=O)Nc1nc2nc(C)cc(=O)n2[nH]1	9.98	1.58
Cc1cccc(NS(=O)(=O)c2ccc(-c3cc(C)no3)s2)c1	·	0.61
CNC(=O)c1c(NC(=O)c2ccc(OC(C)C)cc2)sc2c1CCC2	·	0.59
N#Cc1ccc(S(=O)(=O)c2ccc(Cl)cc2)nc1	-0.25	·
N=C1C(c2nc3ccccc3s2)=C(O)CN1c1ccc(C(N)=O)cc1	-1.08	1.99
O=c1c(-c2ccc3c(c2)OCCO3)coc2cc(O)cc(O)c12	-2.12	2.29
Cc1c(-n2c(/C=C/c3cn(C)c4ccccc34)nc3ccccc3c2=O)c(=O)n(-c2ccccc2)n1C	-1.01	8.23
Cc1ccc2nc(SCc3cn4c(C)cc(C)nc4n3)[nH]c2c1	-0.85	-0.76
C=CCc1ccc(OCCOc2cccc(/C=C3\SC(=S)NC3=O)c2)c(OC)c1	-0.22	·
Cc1ccccc1C(=O)Nc1cnc2sc3ccccc3n2c1=O	0.54	0.5
COc1ccc(C2C3=C(CCCC3=O)Nc3nc(SCc4ccc(F)cc4)nn32)cc1OC (configuration not stated)	-1.01	-0.92
O=C(c1noc2c1COc1ccccc1-2)N1CCN(c2ccc(Cl)cc2)CC1	-0.56	1.63
Cc1cc(C)n(CCc2nc3c4ccccc4nc(NCCC(C)C)n3n2)n1	-1.85	1.01
CCOc1ccc(C2N3CC4(C(C)C)CN2CC(C(C)C)(C3)C4=O)cc1OC (configuration not stated)	-1.18	1.86
CCCCC(=O)Oc1cc2c(C(=O)OCC)c(C)n(C)c2c2ccccc12	-5.72	0.17
CCOC(=O)c1noc2ncnc(N3CCN(CC)CC3)c12	·	-0.3
Nc1ccc(Br)cc1C(O)c1ccccc1Cl (configuration not stated)	-0.72	1.88
CC(C)(C)c1csc(N)c1C#N	-1.94	·
O=S1(=O)C[C@H](N2CCN(C/C=C/c3ccccc3)CC2)[C@@H](S(=O)(=O)c2ccc(Cl)cc2)C1	-1.9	1.35
O=C(c1ccco1)N1CCN(c2ccc(F)cc2)CC1	-0.07	-0.24
COc1ccccc1-c1nnc2sc(-c3cnccn3)nn12	0.03	2.08
CN1CC(=O)N=C1N	·	2.33
O=C(CCCc1c[nH]c2ccccc12)OCC(=O)c1ccc(Br)cc1	0.7	-1.83
CCC(C)NC(=O)c1sc2nc(C)c(C(=O)Nc3ccc(C)cc3C)c(-c3ccco3)c2c1N (configuration not stated)	-0.19	·
CC(C)CCN(C(=O)Nc1ccc(Cl)cc1)C1CCN(C(C)C)CC1	·	1.69
Cn1c(=O)c2c(-c3ccccc3Br)n(-c3ccccc3O)cc2n(C)c1=O	0.04	1.64
NC(=O)c1c(NC(=O)C2CCCN(C(=O)c3cccs3)C2)sc2c1CCCC2 (configuration not stated)	-1.66	2.02
Cc1cccc(NC(=O)CCCc2nc(-c3cccs3)no2)n1	-0.63	2.18
OCC#Cc1ccc(-c2cccnc2)s1	-1.05	·
CCOC(=O)C1=C(C)NC2=C(C(=O)C(C(=O)OC)C(C)C2)C1c1c(F)cccc1Cl (configuration not stated)	-0.1	0.38
O=C(NC1CCCCC1)c1ccc2c(=O)n3c(nc2c1)CCCCC3	-0.32	·
O=C(C1=C(O)C(=O)N(c2nncs2)C1c1ccccc1F)c1cccs1 (configuration not stated)	-0.04	-1.45
CCOC(=O)c1ccc(CSc2nc(C)nc3c2CCC3)cc1	0.87	0.6
C/C(=N/NC(=S)NC1CCCCC1)c1sc(-c2cccs2)nc1C	-1.5	·
CC1Cc2ccccc2N1C(=O)CSc1nc(-c2cccc(Cl)c2)nc2cc(=O)[nH]n12 (configuration not stated)	·	1.56
CC(C)(C)/C=N/NC(=O)c1nc(-c2ccc(C(C)(C)C)cc2)no1	-0.89	·
O=C(O)C1=C[C@@H](O)[C@@H](O)[C@H](O)C1	-2.53	1.36
O=c1ccc(-c2ccc(S(=O)(=O)NCCN3CCCC3)s2)n[nH]1	·	0.72
Cn1c(=O)c(C(=O)Nc2nccs2)c(O)c2ccccc21	-1.62	·
Cc1cc2c(=O)n(CC(=O)NCC(=O)O)cnc2s1	-1.13	2.66
COc1ccc(CCNC(=O)/C(C#N)=N/Nc2ccc(F)cc2)cc1OC	-0.19	·
COc1cc2c(cc1OC)-c1nnc(-c3ccc(Cl)cc3)n1C(C)(C)C2	-2.73	·
CC(C)CCNc1ncnc2c1sc1nc3c(cc12)COC(C)(C)C3	-0.15	0.79
CCCNC(=O)C(=O)NCC(c1ccco1)S(=O)(=O)c1cccs1 (configuration not stated)	·	0.59
COc1ccc(C2CC(=O)C3=C(C2)Nc2ccccc2NC3c2coc3ccc(C)cc3c2=O)cc1 (configuration not stated)	-1.25	1.3
O=S(=O)(c1ccccc1)c1cnc2cc3c(cc2c1N1CCCCC1)OCCO3	-0.5	-0.1
Cc1noc(C)c1C(=O)O/N=C(/c1cccs1)C(C)(C)C	0.56	·
O=C(CSc1ccccc1)OCc1cc(=O)n2c3c(sc2n1)CCCC3	·	-0.37
Cn1nc(C(C)(C)C)cc1C(=O)N1CCC(C(F)(F)F)CC1	-1.17	·
CCC(=O)N1CCc2cc(Br)cc(S(=O)(=O)CCC(=O)NCC3CCCO3)c21 (configuration not stated)	1.83	·
Nc1cccc(-c2nnc(-c3ccco3)o2)c1	-0.04	1.42
CCOc1ccc2nc(NC(=O)c3nn(-c4ccc(Cl)cc4)ccc3=O)sc2c1	-0.84	-0.29
CC(NC(=O)CCc1nc2sc3c(c2c(=O)[nH]1)CCCCC3)c1ccc2c(c1)OCCO2 (configuration not stated)	·	0.58
CCCn1c(SCc2nc(-c3ccc(C)cc3)no2)nnc1-c1ccccc1	0.67	2.99
COc1ccc(OC)c(NC(=O)N2CCN(c3cc(N4CCCC4)nc(C)n3)CC2)c1	0.46	0.26
O=C(Cn1nc(-c2ccc(Cl)cc2)c2ccccc2c1=O)c1ccc(F)cc1	-1.92	-1.29
CC1CC(N(C(=O)c2ccco2)c2ccccc2)c2ccccc2N1C(=O)c1ccco1 (configuration not stated)	-1.27	0.21
CCN(CCO)c1ncnc2c1cnn2C	·	0.37
Cc1cc(C(=O)NNC(=O)c2cc(C)n(C(C)(C)C)n2)no1	-1.17	·
(listing goes on)
SMILES	CDC25B CDK2 inh	TAR Tat displ
Cc1nn(C)c(C(=O)O/N=C/c2c(F)cccc2Cl)c1[N+](=O)[O-]	-1.67	·
CCOC(=O)C(O)(NC(=O)c1ccccc1)C(F)(F)F (configuration not stated)	-1.84	·
Cc1c(-c2cccc(NS(=O)(=O)c3ccc(Br)cc3)c2)nc2ncccn12	0.16	·
Cc1ccc2[nH]c(=O)c(CO)cc2c1	-2	0.06
O=S(=O)(NCc1cn2ccccc2n1)c1cc(F)ccc1F	-2	·
C=CCN1C(=O)C(=O)c2cccc(C)c21	-0.28	2.53
Cc1nn(C)c(C)c1S(=O)(=O)N(CC(=O)NCC1CCCO1)c1ccc(C(C)C)cc1 (configuration not stated)	-1.4	·
O=C1C=C(O)c2ccccc2C1=O	·	0.51
O=C1C(=O)N(CC(O)CN2C(=O)C(=O)c3ccccc32)c2ccccc21	2.3	14.6*
O=C(Cn1ncc2c(Cl)cccc21)NCc1cccs1	-0.69	-0.09
Cc1nn(-c2ccc(Cl)cc2)c2nccc(-c3ccccc3)c12	-1.14	0.75
CCN(CC)CCCNC(=O)Cn1nc(C)n2c(cc3sccc32)c1=O	0.19	0.2
Fc1cccc(Cn2cc3c(-c4ccccc4)nnc-3c3cc4c(cc32)OCO4)c1	-1.97	1.45
Cn1c(C2=C(O)CN(c3ccc(Cl)cc3F)C2=N)nc2ccccc21	-1.58	1.77
CN(C(=O)CSc1nc(N2CCOCC2)c2c(c1C#N)CC(C)(C)OC2)c1ccccc1	-1.24	-0.7

Source: PubChem (Center for Chemical Genomics, University of Michigan)
